AmpC nodet inh: AmpC beta-lactamase inhibition, detergent-free assay | P00811 | AmpC nitrocefin hydrolysis, absorbance 480 nm, no detergent; potencies from a single point are estimates | Potency, µM (titrated, usually from 28.7 µM), for the others: at the highest dose activity change, negative = inhibition | actives 1.8% (n = 71,000) | AID 585; active = falling curve, for most hits resting on a single point; inconclusive = weak or doubtful change; inactive = flat or rising curve; note: % of control where 0% means no effect; about half of the hits show no inhibition at the top dose; a quarter of the inactives give rising signals
Target sequence (P00811 whole entry, looked up): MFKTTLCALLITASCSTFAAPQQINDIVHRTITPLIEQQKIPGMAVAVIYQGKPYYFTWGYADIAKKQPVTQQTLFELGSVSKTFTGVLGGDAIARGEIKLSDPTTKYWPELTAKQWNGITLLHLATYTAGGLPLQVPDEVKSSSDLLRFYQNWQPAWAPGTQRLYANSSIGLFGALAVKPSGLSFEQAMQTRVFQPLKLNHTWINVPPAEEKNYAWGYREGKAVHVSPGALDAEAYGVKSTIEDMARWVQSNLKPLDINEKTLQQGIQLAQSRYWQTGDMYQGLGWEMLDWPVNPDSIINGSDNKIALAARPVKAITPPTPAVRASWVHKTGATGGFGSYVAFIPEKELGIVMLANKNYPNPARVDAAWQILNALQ
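Enzyme, pH 7.0 phosphate. Compound titrations were pre-incubated with AmpC for 15 min at room temperature before nitrocefin (stock 800 uM) addition; product formation was recorded at 480 nm every 20 s for 4 min.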
An asterisk follows results filed as active; ? = inconclusive; [ ] = remark or other dose. Potency is the fitted concentration of half-maximal effect. Some of the compounds tested; rates above refer to the full screens.

SMILES	AmpC nodet inh
Cn1c(CN2CCOCC2)nnc1SCC(=O)NC1CCCCC1	-7%
Cc1ccnc(NC(=O)c2ccc(NC(=O)c3ccco3)cc2)c1	-4%
COc1ccc(S(=O)(=O)N2CN(Cc3ccco3)c3nc4ccccc4nc32)cc1	-6%
O=C(NCc1ccccc1)[C@@H]1C[C@H]1[C@@H](NP(=O)(c1ccccc1)c1ccccc1)c1ccccc1	61%
CCOC(=O)N1CCN(c2c(-c3ccc(C)cc3)c(=O)c2=O)CC1	7%
COc1ccccc1N1CCN(C(=O)CN(Cc2ccccc2)S(C)(=O)=O)CC1	111%
CCOc1ccc(CCNC(=O)C2CCCN(C(=O)N(C)C)C2)cc1OCC (stereo not drawn)	17%
O=C(CN1C(=O)CSc2ccccc21)Nc1ccccc1C(=O)N1CCOCC1	3%
CC(=O)NC(C(=O)NCC(N)=O)C(C)C (stereo not drawn)	-15%
Cn1c(=O)c2c(nc(OCc3ccccc3)n2C)n(C)c1=O	8%
COCc1[nH]nc2c1C(c1ccc(OC)c(OC)c1)C(C#N)=C(N)O2 (stereo not drawn)	12%
Cn1c(=O)c2c(nc(Br)n2CCSc2nnnn2-c2ccccc2)n(C)c1=O	29%
COc1cc2c3cc1Oc1c(OC)c(OC)cc4c1[C@@H](Cc1ccc(O)c(c1)Oc1ccc(cc1)C[C@@H]3N(C)CC2)N(C)CC4	32%
O=S1(=O)CC(NCc2ccccc2)C(Nc2ccc(Cl)cc2)C1 (stereo not drawn)	24%
O=C(c1ccc2c(c1)OCO2)N(c1ccc(F)cc1)C1C=CS(=O)(=O)C1 (stereo not drawn)	-3%
Cc1ccccc1OCC(=O)N(Cc1ccc(N(C)C)cc1)C1CCS(=O)(=O)C1 (stereo not drawn)	78%
COC(=O)c1[nH]c2ccccc2c1NC(=O)CN1CCN(c2cccc(Cl)c2)CC1	64%
O=C1c2ccccc2C(=O)N1CCCCSc1nnnn1-c1ccccc1	17%
COCCNC(=O)[C@@]1(Cc2ccccc2)C=C[C@@H](C)N1C(=O)OC	19%
Cc1ccc(NCc2nnc(SCCN3CCCCC3)n2CC2CCCO2)c(C)c1 (stereo not drawn)	56%
CCN1C(=O)/C(=C2\SC(=S)N(CCCOC)C2=O)c2ccccc21	4%
Cn1c(=O)c2c(ncn2CCN(CCO)Cc2ccccc2)n(C)c1=O	10%
CCOc1ccc(NC(=O)CCNS(=O)(=O)c2ccc3c(c2)c(=O)n(C)c(=O)n3C)cc1	-11%
O=C(CN(c1ccc(F)cc1)S(=O)(=O)c1ccccc1)NCc1ccco1	-1%
O=C(Nc1nnc(-c2ccccc2)s1)c1ccc(Cl)c(S(=O)(=O)N2CCOCC2)c1	-6%
CCOc1ccc(-n2c(SCC(N)=O)nc3c(c2=O)SCC3)cc1	-6%
CCCCS(=O)(=O)C(=C1Nc2ccccc2N1)S(=O)(=O)CCCC	-12%
COC(=O)N1CCC2(CCN(Cc3cc(C(F)(F)F)cc(C(F)(F)F)c3)CC2)CC1	91%
CC1=Nn2c(nnc2C2CCCCC2)SC1	-8%
CCN(CC)C(=O)CN1C(=O)C2(OCC(C)(c3ccccc3)CO2)c2ccccc21 (stereo not drawn)	2%
N#C/C(=C\c1cccs1)Sc1nc2ccccc2s1	-6%
CC1CC(C)CN(S(=O)(=O)c2ccc(C(=O)N3CCN(c4ccccc4)CC3)cc2)C1 (stereo not drawn)	70%
Cc1ccc2c(c1)C1CN(C)CCC1N2C(=O)c1ccc(Br)o1 (stereo not drawn)	9%
CCc1nc(N2CCN(C(=O)c3ccco3)CC2)c2oc3ccccc3c2n1	67%
COc1ccc(S(=O)(=O)N2CCCCC2C(=O)O)cc1OC (stereo not drawn)	-12%
Cc1cccc(NC(=O)CN(C)S(=O)(=O)c2ccccc2)n1	-5%
COc1ccc(OC)c(S(=O)(=O)Nc2ccccc2C)c1	0%
C[Si](C)(C)C#Cc1ccccc1NC(=S)Nc1ccccc1	-1%
COc1ccc(CNC(=O)CN(C(=O)c2ccc(CN3CCOCC3)o2)C2CCCC2)cc1	30%
Cc1ccc(Cn2c(=O)c3ccccc3n3c(CCC(=O)O)nnc23)cc1	-1%
O=C(O)CCCc1nc2ccccc2s1	-10%
CCN(CC)c1ccc2cc(-c3nc4ccccc4n3C)c(=O)oc2c1	0%
CC(=O)N1CCc2cc(S(=O)(=O)NC(C(=O)Nc3nc(C)cs3)C(C)C)ccc21 (stereo not drawn)	-2%
O=C(Nc1cccc2ccccc12)c1ccc(Br)o1	-10%
CCc1ccccc1NC(=O)CSc1nnc([C@H](CCSC)NC(=O)OC(C)(C)C)o1	-6%
O=C(CCSc1nc(-c2ccco2)cc(C(F)(F)F)n1)NCCc1ccccc1	27%
Cc1cc(N(C(=O)c2ccco2)C(C(=O)NC2CCCCC2)c2ccccc2)ccc1-n1cnnn1 (stereo not drawn)	97%
O=C(CC1Nc2ccccc2NC1=O)NCCCN1CCCCCC1 (stereo not drawn)	0%
O=C(CSc1n[nH]c(=O)n1C1CC1)Nc1cc(Cl)ccc1Oc1ccccc1	61%
CC(Oc1ccc2c(-c3ccccc3)cc(=O)oc2c1)C(=O)O (stereo not drawn)	-3%

Rewritten with each value named: two of the compounds above.
smiles: CC(=O)N1CCc2cc(S(=O)(=O)NC(C(=O)Nc3nc(C)cs3)C(C)C)ccc21 (stereo not drawn)
  AmpC nodet inh: -2%

smiles: O=C(Nc1cccc2ccccc12)c1ccc(Br)o1
  AmpC nodet inh: -10%

Some of these compounds in order of length of the SMILES, highest first:
SMILES	AmpC nodet inh
CC(=O)N1CCc2cc(S(=O)(=O)NC(C(=O)Nc3nc(C)cs3)C(C)C)ccc21 (stereo not drawn)	-2%
O=C(CSc1n[nH]c(=O)n1C1CC1)Nc1cc(Cl)ccc1Oc1ccccc1	61%
CCN(CC)c1ccc2cc(-c3nc4ccccc4n3C)c(=O)oc2c1	0%
CC(Oc1ccc2c(-c3ccccc3)cc(=O)oc2c1)C(=O)O (stereo not drawn)	-3%
O=C(CC1Nc2ccccc2NC1=O)NCCCN1CCCCCC1 (stereo not drawn)	0%
O=C(Nc1cccc2ccccc12)c1ccc(Br)o1	-10%

The list goes on:
SMILES	AmpC nodet inh
COC(=O)c1sccc1NC(=O)c1ccc(Cl)s1	-4%
O=C(CSc1nnc(CNc2ccc(F)cc2)o1)N1CCN(C(=O)c2ccco2)CC1	23%
CCCC1(C(=O)OC)NC(c2cccc(F)c2)C2C(=O)N(CC)C(=O)C21 (stereo not drawn)	6%
COc1ccc(CN2CCN(C(=O)c3ccco3)CC2)cc1OCc1ccccc1	83%
COc1ccccc1CNc1nc(-c2ccc3c(c2)OCO3)nc2ccccc12	?
CN(C)S(=O)(=O)N1CCC(c2ccc(F)cc2)C(COc2ccc3c(c2)OCO3)C1 (stereo not drawn)	6%
CC(=O)N1CCC2(CCN(Cc3cc(C(F)(F)F)cc(C(F)(F)F)c3)CC2)CC1	-6%
Cc1cccc(CC2CC(=O)N(c3ccccc3)C2=O)c1 (stereo not drawn)	2%
COC(=O)C1=CN(CC2CCCO2)C=C(C(=O)OC)C1c1cc(OC)c(OC)c(OC)c1 (stereo not drawn)	100%
CCCCc1cc2c(c(NC(=O)CC)n1)c(=O)oc1ccccc12	-3%
Cc1ccc2[nH]c(=O)c(N3CCOCC3)c(-c3ccccc3)c2c1	70%
CCC(C)n1c(=O)c(C(=O)Nc2ccccc2S(N)(=O)=O)c(O)c2ccccc21 (stereo not drawn)	-23%
Cc1ccc(N(C(=O)CNC(=O)c2ccco2)C(C(=O)NC2CCCC2)c2cccnc2)cc1C (stereo not drawn)	53%
CC1=C(C(=O)Nc2ccccc2)C(c2ccco2)C(C#N)=C(SCC(=O)Nc2cccc(C)c2C)N1 (stereo not drawn)	-19%
Cn1cc(C2NC(=O)c3c(sc4c3CCCC4)N2)c2ccccc21 (stereo not drawn)	-4%
Cc1ccc(-c2nn3c(C)nnc3s2)cc1NC(=O)c1cccs1	9%
Cc1cccc(C)c1OCCCCc1c(C)n[nH]c1C	38%
CCc1c(C)nc2c(C#N)c[nH]n2c1=O	-13%
Clc1ccc2c(c1)C1OCCC1C(c1ccco1)N2 (stereo not drawn)	7%
COc1ccc(OC)c(NC(=O)CCNS(=O)(=O)c2cccs2)c1	-7%
O=C(NCc1cccs1)C(NS(=O)(=O)c1cccc2nsnc12)c1ccccc1 (stereo not drawn)	-10%
O=C(CN1CCN(c2ccccc2)CC1)Nc1cccc(C(F)(F)F)c1	19%
CC(C)Oc1ccc(C2C(C(=O)c3ccco3)=C(O)C(=O)N2CCCN(C)C)cc1 (stereo not drawn)	-4%
COc1ccccc1CN1CC[C@@]2(CCCN(S(C)(=O)=O)C2)C1	14%
CCNc1ncc2nc(-c3cn(C)c4ccccc34)c(=O)n(Cc3ccc(F)cc3)c2n1	4%
O=C(O)c1cccc(Nc2nc(N3CCOCC3)nc(N3CCOCC3)n2)c1	-5%
Clc1ccc(-c2nn3c(-c4ccccn4)nnc3s2)c(Cl)c1	-7%
CC(c1ccccc1)C(CC(=O)O)C(=O)NC1CCCCC1 (stereo not drawn)	0%
Cc1ccc(C(=O)Cn2c3c(sc2=N)CCCC3)cc1	47%
Cc1ccc2c(c1)CC1(CN2C)C(=O)OC2(CCCCC2)OC1=O	1%
CC(C)(C)NC(=O)COC(=O)c1ccc(S(=O)(=O)N2CCCCCC2)cc1	10%
O=C(c1ccc(Cl)cc1)C1CCN(C(=O)NC2CCCCC2)CC1	35%
CN(Cc1nc2ccccc2n1C)S(C)(=O)=O	-3%
CCn1c(SCC(=O)c2cc(C)n(CC3CCCO3)c2C)nc2ccccc21 (stereo not drawn)	85%
Cc1ccc(-n2[nH]c(C)c(C=Nc3ccc(C)cn3)c2=O)cc1	22%
Cn1cnnc1SCC(=O)n1c2ccccc2c2ccccc21	117%
O=C(COc1ncnc2ccccc12)c1ccc2c(c1)OCCO2	0%
O=C(CSc1ccccc1)Nc1cccnc1	-10%
CC1=C(C)CS(=O)N(c2ccc(S(N)(=O)=O)cc2)C1 (stereo not drawn)	0%
CC(C)=CCNc1ncnc2nc[nH]c12	2%[5.75 µM]
CCn1c(COc2ccc(C)cc2)nnc1SCC(=O)C(C)(C)C	77%
Cc1c(Cl)cccc1NC(=O)CSCc1cc(=O)[nH][nH]1	-11%
Cc1ccc(S(=O)(=O)C(C#N)c2nc3ccccc3nc2N2CCCC2)cc1C (stereo not drawn)	13%
COC(=O)CSc1nnc(-c2cccnc2)n1-c1cccc(OC)c1	45%
CCCN(CCC)C(=O)SCC	-11%
O=[N+]([O-])c1ccc(S(=O)(=O)Cc2ccccc2)c([N+](=O)[O-])c1	-8%[5.75 µM]
COC(=O)[C@@]1(Cc2ccc(OC)cc2)[C@H]2c3cc(C(=O)N4CCCC4)n(CCc4ccccn4)c3C[C@H]2CN1C(=O)c1ccccc1	161%
c1coc(-c2nnc(-c3cccs3)o2)c1	-10%
O=C(O)c1ccc2c(c1)ncn2C1CCCCCC1	2%
O=c1c2c3nc4ccccc4nc3n(CCN3CCOCC3)c2ncn1CCN1CCOCC1	54%

More results follow:
SMILES	AmpC nodet inh
O=C1CNC(=O)c2c(nc3n2CCC3)N1	-14%
COC(=O)c1cc2sccc2n1CC(=O)N1CCCc2ccccc21	15%
Cc1c(CNCc2cccs2)c(C(=O)O)c(C)n1Cc1ccccc1	20%
COc1cccc(OC)c1NC(=O)Cc1nn(C)c(=O)c2ccccc12	-5%
CCCCCN(CCCCC)C(=O)[C@H](CCC(=O)O)NC(=O)c1ccc(Cl)c(Cl)c1	63%[12.8 µM]
CCc1c(C(=O)N2CCOCC2)csc1C	15%
O=S(=O)(c1ccccc1)N1CN2CN(C1)CN(S(=O)(=O)c1ccccc1)C2	5%[5.75 µM]
CCC(=O)Nc1ccc(C(=O)c2ccccc2)cc1	8%
CC1=CC(=C2C(=O)c3ccccc3C2=O)C=C(C)N1Cc1ccco1	17%
CC(C)(C)NC(=O)C(c1ccco1)N(Cc1ccc(F)cc1)C(=O)c1snc(C(N)=O)c1N (stereo not drawn)	25%

Rewritten comma-delimited: entries from further up
structure,AmpC nodet inh
CCN(CC)C(=O)CN1C(=O)C2(OCC(C)(c3ccccc3)CO2)c2ccccc21 (stereo not drawn),2%
O=c1c2c3nc4ccccc4nc3n(CCN3CCOCC3)c2ncn1CCN1CCOCC1,54%

More compounds
SMILES	AmpC nodet inh
O=C(NCCCn1ccnc1)c1cn(Cc2ccc(F)cc2)nn1	0%
CC1=Nc2ccccc2N=C(NC(=O)CSc2nnnn2-c2ccccc2)C1c1ccccc1 (stereo not drawn)	-11%
C=CCSC1=N/C(=C\c2cc(OC)c3c(c2)OCO3)C(=O)S1	-18%
CCCCOc1cccc(C(=O)Nc2ccc(N3CCN(CC)CC3)cc2)c1	77%
COc1ccc(C)c(Cn2c(-c3nonc3N)nc3ccccc32)c1	-19%
COc1cccc(NC(=O)c2ccc(CN3CCN(c4ccccc4)CC3)cc2)c1	32%
CCn1c(SCC(=O)C(C)(C)C)nnc1-c1cccnc1	1%
CCN(CCCNC(=O)C1CCC(=O)N1Cc1ccc(F)cc1)c1cccc(C)c1 (stereo not drawn)	112%
O=C(CCSc1nnc(-c2ccncc2)o1)Nc1ccc(Cl)cc1	33%
CC1(c2ccc3c(c2)OCO3)NC(=O)N(CC(=O)NCCC2=CCCCC2)C1=O (stereo not drawn)	22%
CCn1cc(C(=O)O)c(=O)c2cc(OC)ccc21	-1%
CC(C)(C)c1ccc(-c2nnc3sc(-c4ccccn4)nn23)cc1	-2%
Cc1ccc(S(=O)(=O)N2CCOCC2)cc1C(=O)N1C(=O)c2cccc(N)c2C1=O	38%

Screening results deposited in PubChem by National Center for Advancing Translational Sciences (NCATS).
